Rango dissoc inh: inhibitors of RanGTP-induced Rango-importin beta complex dissociation; Biochemical FRET Rango-importin beta, RanGTP-induced dissociation; Potency, µM (series often up to 46.1 µM), for inactives: top-dose activity change, negative = inhibition; 0.071% of 340,000 active; AID 540253; active means falling FRET ratio curve, often poorly fitted, with flat reads before Ran was added; inconclusive means other falling curves, or compound fluorescence or quenching; inactive means flat or rising ratio curve;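 also: potency is read from the fitted curve at half-maximal effect; % of control where 0% means no effect; nearly all actives have a fitted effect of over 45% in size; -100% = wells without RanGTP and RCC1; the record marks most hits as doubtful in a second field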
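Compounds sat 5 min at room temperature with 0.1 uM Rango biosensor plus 0.25 uM importin beta, then FRET pre-read. RanGTP-RCC1 (0.6 uM Ran, 2mM GTP, 0.2 uM RCC1) added for 45 min, and the CFP/YFP post-read measured blocked complex dissociation.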
GLA inh pH 4.5: blocks human alpha-galactosidase A at pH 4.5. activity change, negative = inhibition, % at 105 µM. 230,000 tested, under 10 active. purified enzyme, 4-MU-alpha-Gal fluorescence, pH 4.5. AID 1467. P06280; inconclusive = small, poorly fitted or top-dose-only inhibition, or a rising curve; inactive = flat fitted curve, though single readings scatter; no compound was filed as active;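 also: 0% = full activity with enzyme and -100% = basal without enzyme; dose as in the result columns while the protocol names 77 µM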
Target sequence (P06280 whole entry, looked up): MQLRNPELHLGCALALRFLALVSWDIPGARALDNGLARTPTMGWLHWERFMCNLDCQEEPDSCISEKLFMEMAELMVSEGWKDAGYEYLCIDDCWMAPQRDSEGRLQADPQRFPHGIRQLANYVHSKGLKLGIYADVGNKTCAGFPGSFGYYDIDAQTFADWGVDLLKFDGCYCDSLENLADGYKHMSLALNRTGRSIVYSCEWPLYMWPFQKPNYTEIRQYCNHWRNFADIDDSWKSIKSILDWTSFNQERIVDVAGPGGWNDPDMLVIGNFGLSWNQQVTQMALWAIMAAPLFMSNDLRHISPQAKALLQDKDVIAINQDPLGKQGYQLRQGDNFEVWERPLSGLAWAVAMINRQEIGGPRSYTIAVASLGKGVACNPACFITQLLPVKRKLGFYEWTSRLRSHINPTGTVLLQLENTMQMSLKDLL
miR-21 FLuc: miR-21 reporter, rising signal; 340,000 tested, under 10 active; Potency, µM (titrated, usually from 38.3 µM), without a hit: at the top dose reporter change, positive = more light; HeLa miR-21 FLuc reporter, luciferase, 48 h; active = well fitted rising curve with a large enough effect; inconclusive = small, poorly fitted or top-dose-only effect; inactive = no such curve, though single readings can be large or run the other way;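 also: % of control where 0% means no effect; miR-21 action dims this reporter so a rising signal means less miR-21 action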
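Luminescence from a firefly luciferase reporter carrying a miR-21 binding site downstream, stably expressed under a CMV promoter in HeLa cells that make miR-21 endogenously, reports miRNA modulation after 48 h compound exposure up to approximately 40uM final.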
Rango complex inh: prevents formation of the Rango-importin beta complex; Potency, µM (titrated, usually from 92.2 µM), without a hit: at the top dose inhibition of complex formation; AID 540263; Rango CFP/YFP FRET sensor + importin beta, 45 min; 0.031% of 340,000 active; active = rising FRET ratio curve, often small or poorly fitted; inconclusive = mostly compound fluorescence or quenching in the first reads; inactive = flat curves in all reads;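 also: potency is read from the fitted curve at half-maximal effect; 0% = DMSO wells and 100% = buffer wells lacking importin beta; nearly all actives have a fitted effect of over 15% in size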
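FRET biosensor Rango (snurportin 1 IBB between N-terminal EYFP and C-terminal Cerulean), 50 nM in PBS/1 mM DTT/0.02% Tween-20/0.1% BSA, preincubated 5 min RT with compound; 0.125 microM importin beta added, 45 min RT, CFP/YFP FRET ratio read.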
An asterisk follows results filed as active; ? = inconclusive; . = no result given; & = joins results of further samples. The list is partial; count on the stated rates, not on these rows.

Below each compound – Rango dissoc inh | GLA inh pH 4.5 | miR-21 FLuc | Rango complex inh
> COc1ccc(-c2n[nH]c(C(F)(F)F)c2-c2cc3ccccc3o2)c(O)c1
    -5% | 20 | ? | -0.6%
> CC(=O)OCC(=O)N1CCN(c2ccc([N+](=O)[O-])cc2)CC1
    -11% | -7 | -3% | 5.0%
> Cc1ccc(NC(=O)CN(C)C(=O)Cc2c[nH]c3ccccc23)cc1
    2% | . | . | -4.0%
> C=CCn1c(-c2cccc(Cl)c2)n[nH]c1=S
    -10% | -11 | -7% | 4.4%
> Nc1ccc(C(=O)NNC(=O)C2COc3ccccc3O2)cc1[N+](=O)[O-] (stereo unspecified)
    3% | . | . | -1.2%
> CCOC(=O)C1(Cc2ccccc2)CCCN(Cc2cnn(CC)c2)C1 (stereo unspecified)
    1% | 0 | -3% | -2.0%
> COCCN(CCOC)C(=O)c1sc2nc(-c3ccccc3)cn2c1C
    6% | 3 | -13% | -0.5%
> CN(CC(=O)NC(=O)Nc1ccccc1F)Cc1ccccc1F
    9% | . | . | -1.2%
> Clc1ccccc1CNCc1ccncc1
    -4% | 4 | -2% | -0.9%
> COC(=O)CCCC1=CC2=C(c3ccccc3)C(=O)C(C)(OC(=O)C3CCCC3)C(=O)C2=CN1Cc1ccco1 (stereo unspecified)
    -13% | 14&-5 | 0% | ?
> O=C(COc1ccccc1Cl)NCCCNC(=O)c1ccncc1
    12% | . | -5% | 2.3%
> CCOc1ccc(NC(=O)CN(C)C(=O)Cc2ccsc2)cc1OCC
    18% | . | . | -3.9%
> CCC(=O)Oc1ccc2ccccc2c1CNC(=O)c1ccccc1
    -4% | 4 | -5% | -2.1%
> CCOc1ccc(CCNC(=O)CSc2ncn[nH]2)cc1OCC
    4% | . | -6% | 0.6%
> Cc1cccc(C(=O)Nc2ccc(S(=O)(=O)N3CCOCC3)cc2)c1[N+](=O)[O-]
    -7% | . | 1% | -1.9%
> Cc1ccccc1C(=O)N1CC(=O)Nc2ccc(F)cc2C1c1ccccc1 (stereo unspecified)
    -6% | . | 0% | 3.8%
> O=C(NCCc1cccc(Cl)c1)c1cc([N+](=O)[O-])ccc1Cl
    0% | 2 | 4% | -3.7%
> COc1ccc(NC(=O)C2CCCN(S(=O)(=O)c3c(C)n[nH]c3C)C2)c(OC)c1 (stereo unspecified)
    2% | 1 | 1% | -0.5%
> O=C(COC(=O)c1cccs1)NCC1CCCO1 (stereo unspecified)
    -2% | 9 | -4% | -0.7%
> CN(C)c1ccc(/C=c2/sc3n(c2=O)NC2(c4ccccc4)N(C)C(=O)N(C)C2(c2ccccc2)N=3)cc1 (stereo unspecified)
    . | -2 | -7% | .
> O=C(O)CCNC1C=CS(=O)(=O)C1 (stereo unspecified)
    0% | 6 | 0% | 0.5%
> CCCC1c2ccc(C)n2CCN1C(=O)Nc1ccccc1Cl (stereo unspecified)
    ? | 4 | -59% | ?
> O=C(NC1CC1)c1ccc(NS(=O)(=O)c2ccccc2)cc1
    -4% | . | -8% | -1.3%
> Cc1csc(NC(=O)CSc2nccn2C)n1
    8% | . | -17% | 2.0%
> CCCCNS(=O)(=O)CCNCc1ccc(OC)cc1
    10% | . | . | -4.9%
> O=c1c2c(n3cnnc3n1C1CCCCC1)-c1ccccc1CC21CCCCC1
    19% | -3 | -6% | 1.4%
> CCN(CC)S(=O)(=O)c1ccc(-c2nnc(SCC(=O)N3c4ccccc4CC3C)o2)cc1 (stereo unspecified)
    5% | -1 | 5% | -5.2%
> COC(=O)c1ccc(NCc2cc(O)ccc2O)cc1
    -7% | . | . | -7.5%
> COc1ccc(OC(=O)c2cc3ccccc3o2)cc1
    -1% | -2 | -8% | 1.4%
> COc1ccc2cc(C(C)C(=O)NC3CCC(O)CC3)ccc2c1 (stereo unspecified)
    -8% | . | 1% | -1.8%
> CCOc1ccc2ccccc2c1/C=N\NC(=O)c1ccc([N+](=O)[O-])cc1
    -7% | . | -5% | 15%
> O=C1C=CC(=O)c2c(O)c(N3CCN(CCO)CC3)c(Cl)c(O)c21
    -21% | . | . | ?
> O=C(Nc1ccc(N2CCN(C(=O)c3cccs3)CC2)cc1)c1cccnc1Cl
    -3% | -2 | 1% | 0.0%
> CCN(CC)CCOC(=O)CCc1cccc2ccccc12
    -10% | -2 | -9% | 1.0%
> O=C(NCC(c1cccs1)N1CCOCC1)c1ccc(Cl)s1 (stereo unspecified)
    6% | 6 | 26% | 2.8%
> Cc1cc(N2CCCC2)nc2ccc(NC(=S)NC(C)C)cc12
    -9% | 0 | -21% | ?
> Cc1noc(COc2ccccc2OCc2onc(C)c2Cl)c1Cl
    10% | -5 | -16% | 1.9%
> CCC(=O)Nc1cccc(-c2csc(-c3ccccc3)n2)c1
    21% | 4 | -52% | 5.9%
> CCOC(=O)C[C@H]1c2cc(F)ccc2S(=O)(=O)N1C1CCCC1
    -12% | . | . | 1.5%
> CCOC(=O)c1sc(NC(=O)c2cccs2)cc1C
    0% | 4 | -46% | -1.9%
> COc1ccc(CCN(Cc2ccccn2)C(=S)Nc2ccccc2F)cc1OC
    10% | -3 | -7% | -1.0%
> CCNC(=O)NC(=O)C(C)OC(=O)C(C)(C)Oc1ccc(Cl)cc1 (stereo unspecified)
    -3% | 0 | 8% | -4.2%
> Cc1cccc(C(=O)NCC(C)NC(=O)c2cccc(C)c2)c1 (stereo unspecified)
    -6% | . | -4% | 0.3%
> CCOc1ccc2nc(N/C(N)=N/C(=S)Nc3ccc(OC)cc3)nc(C)c2c1
    5% | 1 | 4% | -1.4%
> O=C(c1ccc(-n2cncn2)c([N+](=O)[O-])c1)N1CCN(c2cccc(Cl)c2)CC1
    -13% | . | -4% | ?
> Cc1ccc(CC(=O)N/N=C/c2ccc(OC(=O)c3ccc([N+](=O)[O-])cc3)cc2)cc1
    4% | 3 | -7% | -1.6%
> Cc1cccc(N(CC(=O)Nc2c(C)n(C)n(-c3ccccc3)c2=O)S(C)(=O)=O)c1C
    7% | 3 | -3% | -1.9%
> O=C(c1ccc2c(c1)N(Cc1ccccc1)CCS2)N1CCCCC1
    14% | 1 | -7% | 3.0%
> C=CCn1c(C)nnc1SCC(=O)Nc1oc(C)c2c(C)n[nH]c(=O)c12
    -23% | . | . | 8.2%
> COc1cccc(NC(=O)CC(c2ccc(OC(C)C)cc2)c2ccccc2OC)c1 (stereo unspecified)
    -15% | 2 | -3% | -1.2%
> O=C1CC(NS(=O)(=O)c2cccs2)CN1c1ccc(F)cc1 (stereo unspecified)
    -14% | . | . | 6.7%
> Cc1ccccc1C(=O)c1cccn1CC(=O)NCc1ccc2c(c1)OCO2
    5% | 4 | -38% | -1.0%
> CC(C)N1CCN(Cc2cnc(N3CCCC3)s2)CC1CCO (stereo unspecified)
    -3% | -2 | -5% | 4.0%
> Cc1ccc(-c2nc3ncccc3n2O)cc1
    14% | . | -16% | 5.8%
> Cc1cc(C)c(CN2CCN(C(=O)Cn3cnc(C(=O)Nc4ccc(C)c(C)c4)n3)CC2)c(C)c1
    -21% | . | . | 0.0%
> O=c1ccnc(Nc2ccc([N+](=O)[O-])cc2)[nH]1
    -7% | . | . | 3.5%
> O=C(CCNC(=O)c1ccco1)Nc1nc2ccccc2s1
    -15% | . | . | 1.7%
> Cc1cc(C)n(-c2nnc(C)n2NS(=O)(=O)c2ccc(F)cc2)n1
    1% | -26 | -6% | -0.8%
> CN(C)S(=O)(=O)c1ccc(NC(=S)NC(=O)c2ccc(Br)o2)cc1
    . | 2 | -4% | .
> COc1ccc(NC(=S)NC23CC4CC(CC(C4)C2)C3)cc1OC
    0% | . | -10% | -1.4%

Compound profiles (already shown). Order of screens: Rango dissoc inh | GLA inh pH 4.5 | miR-21 FLuc | Rango complex inh
Listed for `O=C1CC(NS(=O)(=O)c2cccs2)CN1c1ccc(F)cc1` (stereo unspecified) → -14% | . | . | 6.7%
Listed for `Cc1ccc(-c2nc3ncccc3n2O)cc1` → 14% | . | -16% | 5.8%
Listed for `Cc1cc(C)n(-c2nnc(C)n2NS(=O)(=O)c2ccc(F)cc2)n1` → 1% | -26 | -6% | -0.8%
Listed for `C=CCn1c(C)nnc1SCC(=O)Nc1oc(C)c2c(C)n[nH]c(=O)c12` → -23% | . | . | 8.2%

(cont.)
structure | Rango dissoc inh | GLA inh pH 4.5 | miR-21 FLuc | Rango complex inh
C=CCn1c(SCC(=O)NCc2ccc3c(c2)OCO3)nc2scc(-c3ccc(F)cc3)c2c1=O | 0% | -3 | -1% | -4.7%
O=C(COc1ccccc1)NCc1cccs1 | -12% | 6 | -17% | -1.4%
CCOC(=O)C1(CCSC)NC(c2ccco2)C2C(=O)N(C)C(=O)C21 (stereo unspecified) | 13% | 5 | -4% | -2.3%
CC(C)CN(CC(C)C)C(=O)Nc1ccccc1F | 49% | -2 | 2% | -4.0%
Cc1ccc(C(=O)NCC(=O)OCc2c(F)cccc2Cl)s1 | 6% | . | . | -1.4%
CCCCOC(=O)n1ccc(C(=O)Nc2ccccc2OC)n1 | -4% | 1 | -12% | 0.8%
COc1ccccc1C(=O)NNC(=O)C(=O)NCc1ccccc1 | 3% | 9 | 1% | -1.4%
O=C(Nc1ccccc1)c1cn(CCBr)cn1 | -6% | . | . | 6.2%
CC(=O)Oc1ccc(C(=O)Nc2cccc(-c3nnc(-c4ccco4)o3)c2)cc1 | 4% | 4 | 0% | -0.8%
CCCCNC(=S)NCc1ccc2c(c1)cc(C)n2C | -16% | -13 | -3% | -2.3%
CC1(C)C(c2ccccc2)=[N+]([O-])C2(CCCCC2=O)N1O (stereo unspecified) | -9% | -10 | -4% | 0.2%
COc1cc2c(cc1OC)C(c1ccccc1)NCC2 (stereo unspecified) | 11% | . | -4% | -0.5%
CC(C)OC(=O)c1nn2c(C(F)(F)F)cc(-c3ccco3)nc2c1Cl | -14% | -1 | -4% | 8.7%
Cc1cccc(-n2c(O)c(C=Nc3c(C)n(C)n(-c4ccccc4)c3=O)c3ccccc3c2=O)n1 | -8%&-31% | -1 | -3% | ?
O=C(CCc1ccc(Oc2cc([N+](=O)[O-])cc([N+](=O)[O-])c2)cc1)NC1CCCC1 | 26% | -4 | 0% | -1.6%
Cc1ccc(NC(=O)COC(=O)Cn2c(C)csc2=O)cc1 | 1% | -10 | -1% | -2.8%
Cc1cc(NC(=O)CSc2nc(C3CCCCC3)nc3ccccc23)no1 | -5% | -5 | -7% | 1.0%
COc1cc(NC(=O)c2cccs2)c(OC)cc1NC(=O)CCC(=O)Nc1cccc2ncccc12 | 6% | 7 | 15% | -0.3%
COc1ccc(NC(=S)NCc2cccs2)cc1OC | 12% | -3 | -4% | 1.9%
CN(Cc1ccccc1)C1CCCN(C(=O)c2ccc(Cl)s2)C1 (stereo unspecified) | -9% | . | -4% | 0.5%
Cc1cc(C)cc(OCC(=O)NCCN2CCOCC2)c1 | -4% | -2 | -8% | -3.2%
CCSCc1nnc(SCC(=O)Nc2ccc(OC)cc2)n1C | 5% | 6 | -10% | -1.9%
COc1ccccc1C(CNC(=O)c1cccc(NS(=O)(=O)c2ccc(Br)cc2)c1)N(C)C (stereo unspecified) | 8% | . | . | 1.0%
CC(C)c1ccc(OCc2ccc(C(=O)O)o2)cc1 | -6% | 5 | -37% | -1.3%
COc1cc(/C=C\C(=O)Nc2cc(=O)n(C)c(=O)n2C)cc(OC)c1OC | -3% | -7 | 5% | -1.5%
NNC(=O)CN1C(=O)Nc2ccc(Cl)cc2C1c1ccccc1 (stereo unspecified) | 12% | . | 0% | -9.1%
Cc1cnc(C(=O)Nc2ccc(C)c(S(=O)(=O)N3CCCCCC3)c2)cn1 | -4% | . | . | -1.5%
CCc1cccc(NC(=O)CCSCCC(=O)Nc2cccc(CC)c2)c1 | 0% | -10 | -2% | 0.3%

Screens: PubChem BioAssay, National Center for Advancing Translational Sciences (NCATS)
